Calb biofilm kill: clotrimazole potentiators killing C. albicans biofilm, primary screen, 4-compound mixtures; C. albicans biofilm persisters + clotrimazole, fluorescence viability; primary screen in compound mixtures of four per well; inhibition, % at 7.6 µM; 120,000 tested, 0.02% active;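 active = inhibition above 30.3% in the primary screen of four-compound pools, then above 30% when the compound was retested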;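 also: compounds exposed to preformed 24 h biofilms for 48 h; the number belongs to the whole pool; some results filed as inactive read as strong as hits; inactives centre near 12; 0% = biofilm with clotrimazole alone and 100% = kill control; retested singly at about 60 µM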
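Test system: C. albicans CAF4-2 wild-type biofilms; buffer or medium: RPMI/MOPS medium, pH 7.0; schedule: 24 h biofilm formation, then 48 h compound exposure, 37 °C; detection: Alamar Blue fluorescence; measure: percent inhibition of biofilm viability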
An asterisk follows results filed as active.

Preview (four entries):
structure	Calb biofilm kill
CC(C)Cc1nnc(NC(=O)CCC(=O)N2CCN(S(=O)(=O)c3ccccc3)CC2)s1	22
O=C(CCc1nnc(COc2ccccc2)o1)NCc1ccc(Cl)s1	20
FC(F)(F)c1ccc(N2CCN(c3ncnc4c3nnn4Cc3ccccc3Cl)CC2)cc1	16
Cc1ccccc1Oc1nc(-c2ccccn2)nc2ccccc12	6

Main list, repeating the preview:
structure	Calb biofilm kill
CC(C)Cc1nnc(NC(=O)CCC(=O)N2CCN(S(=O)(=O)c3ccccc3)CC2)s1	22
O=C(CCc1nnc(COc2ccccc2)o1)NCc1ccc(Cl)s1	20
FC(F)(F)c1ccc(N2CCN(c3ncnc4c3nnn4Cc3ccccc3Cl)CC2)cc1	16
Cc1ccccc1Oc1nc(-c2ccccn2)nc2ccccc12	6
COc1ccc(CCNC(=O)C2CC(c3cc(C(F)(F)F)cc(C(F)(F)F)c3)=NO2)cc1 (stereo not given)	16
N#C/C(=N/O)c1nc(-c2ccc(F)cc2)cs1	18
Cc1cccc(N/N=C(\C=N\N)C(=O)c2ccc(Br)cc2)c1	4
O=[N+]([O-])c1cccc(-n2nnnc2CNCc2ccccc2)c1	19
COc1c(C)cc(C(=O)C2CCCN(C(=O)c3cccc(F)c3)C2)cc1C (stereo not given)	11
COc1ccc(S(=O)(=O)NCC2CCCN(Cc3cccnc3)C2)cc1 (stereo not given)	2
COc1ccc(C2(CCN=Cc3ccc(N(C)C)cc3)CCOC(C)(C)C2)cc1 (stereo not given)	17
COc1ccccc1NC(=S)N1CCNC(=O)C1CC(=O)Nc1cccc(C)c1 (stereo not given)	1
CN(Cc1cn(C)c2ccccc12)C(=S)Nc1cc(F)cc(F)c1	7
CC(=O)Nc1nc2ccc(C(=O)NC3CCCCC3)cc2s1	7
CCOC(=O)N1CCN(C(=O)CCc2nc3sc4c(c3c(=O)[nH]2)CCCC4)CC1	13
Cc1ccccc1N=CC=C1OC(C)(C)C(C)(C)O1	8
COCCn1nnnc1C(c1cc2cc(OC)c(OC)cc2[nH]c1=O)N1CCN(c2ccc(O)cc2)CC1 (stereo not given)	8
O=C(c1ccc(Cn2cc(Cl)c([N+](=O)[O-])n2)cc1)N1CCN(Cc2ccccc2)CC1	24
Cc1cc(C)cc(OC2CCCCC2NS(=O)(=O)c2ccccc2)c1 (stereo not given)	13
OCC1(Cc2ccccc2)CCN(CCCC2CCCC2)CC1	17
COc1ccc(CCNC(=O)c2ccc(CNS(=O)(=O)c3cccc(Cl)c3)cc2)cc1OC	15
O=C(C(Sc1ccccc1)c1ccc(Br)cc1)N1CCOCC1 (stereo not given)	13
Cc1ccc(NC(=S)NC2CCCCC2)cc1S(=O)(=O)N(C)C	3
CC[C@H](C)[C@@H]1NC(=O)c2cc([N+](=O)[O-])cc(I)c2SC[C@@H](C(N)=O)NC(=O)[C@H](CCCCN)NC1=O	8
COc1cccc(NC(=O)COC(=O)CCOc2ccccc2OC)c1	15
C/C(=N\Nc1nccnc1Cl)c1c(F)c(F)c(F)c(F)c1F	9
COCCNC(=O)C(c1cccs1)N(Cc1cccs1)C(=O)Cn1nnc2ccccc21 (stereo not given)	8
Cc1cc(Br)ccc1OCC(=O)NNC(=O)Cc1ccccc1	6
Cc1ccc2c(c1)-c1[nH]c(=S)ncc1CS2	12
COc1ccnc(N=CNOCc2cccc(C(F)(F)F)c2)c1C#N	10
COc1cccc(/C=N/NC(=O)CNC(=O)COc2ccccc2)c1O	22
O=C(N/N=C/c1cccc(O)c1)c1ccc(COc2ccccc2Br)cc1	7
O=C(CSCc1c(Cl)cccc1Cl)NN=C1CCCC1	8
CCc1ccc(NC(=O)Cc2ccc(OC)cc2)cc1	0
COc1ccc(OCCSc2nc(C)nc3ccccc23)cc1	16
CC(NC(=O)C1CCC(CNc2c(N3CCCCC3)c(=O)c2=O)CC1)c1ccccc1 (stereo not given)	12
COc1ccccc1CNC(=O)COC(=O)Cc1ccc(Cl)cc1	19
Cc1ccc(S(=O)(=O)N2CCCC2C(=O)NCCc2nc3ccccc3[nH]2)cc1 (stereo not given)	5
O=C(c1ccc(S(=O)(=O)N2CCOCC2)cc1)N1CCN(S(=O)(=O)c2ccc(Cl)s2)CC1	20
Cc1ccc2oc(-c3cccc(NC(=S)NC(=O)c4cccs4)c3)nc2c1	14
COc1ccc(OCC(O)CN2CCN(c3ncccn3)CC2)cc1 (stereo not given)	10
Cc1cc(N2CCOCC2)nc(-c2ccc(Br)cc2)n1	14
COc1ccc(CNC(=O)C2CSC(=O)C2)cc1 (stereo not given)	11
CCCCCn1c(C)c2c(OCC)cccc(=O)c2c1C	19
C/C(=N\NC(=S)NCc1ccccc1)c1ccc(C)o1	9
COc1ccc(/C=C/C(=O)Nc2cccnc2)cc1OC	17
Cc1ccc2cc(/C=N/NC(=O)[C@H](C)NC(=O)OC(C)(C)C)c(Cl)nc2c1	12
CCN(CC)CCSc1nc2ccc(OC)cc2[nH]1	14
CN1CCN(C(=O)c2ccc(-c3cccs3)s2)CC1	12
CCN(CCNC(=O)c1ccc(CSc2nc3ccncc3[nH]2)cc1)c1ccccc1	11
O=S(=O)(c1ccccc1)N1CCC(O)(CSc2ccccc2)CC1	-6
O=C1NCCN1c1ccc(CN2CCN(C3CCCCC3)C(CCO)C2)cc1 (stereo not given)	5
COc1cc(C(CC(=O)N2CCOCC2)c2c(OC)cc(OC)c3ccc(=O)oc23)cc(OC)c1OC (stereo not given)	18
Cc1c(/C=C/C(=O)c2cccs2)cnn1C	7
O=[N+]([O-])c1ccc(-c2ccn[nH]2)o1	6
O=C(CCN1C(=O)c2ccc([N+](=O)[O-])cc2C1=O)Nc1ccc(O)cc1C(=O)O	21
COc1ccc(C(=O)NC(=S)Nc2cccc(S(=O)(=O)N3CCOCC3)c2)cc1	14
CCOC(=O)C1(CCc2ccccc2)CCN(Cc2c(O)cccc2OC)CC1	-2
O=C(Nc1ccc(F)cc1F)c1c(C(F)(F)F)ccnc1Oc1ccc(Cl)cc1	15
O=S(=O)(c1cccs1)N1CCN(S(=O)(=O)c2cccs2)CC1	11

The list continues:
structure	Calb biofilm kill
O=C(Nc1c(-c2ccccc2)nc2ccccn12)c1cccs1	20
CCOC(=O)C1=C(CNC(C)(C)CC(C)(C)C)NC(=O)NC1c1cccc([N+](=O)[O-])c1 (stereo not given)	11
Cc1ccc(C(=O)N/C(=C/c2ccc(-c3ccc(Br)cc3)o2)C(=O)NC2CCS(=O)(=O)C2)cc1 (stereo not given)	13
O=C1/C(=C/c2ccc(C(=O)O)cc2)CCC/C1=C\c1ccc(C(=O)O)cc1	8
C#CCNC(=O)C1=C[C@H](c2ccc(C(F)(F)F)cc2)C[C@H](OCc2ccc(CO)cc2)O1	16
COc1ccc(Oc2ccc(N/C=C/C(=O)C(C)(C)C)cc2)cc1	15
Cc1ccc(S(=O)(=O)N(C)C)cc1NC(=O)c1ccc2ccccc2n1	13
Cc1ccc(C(=O)c2c[nH]c3c(F)cc(F)cc3c2=O)cc1	25
CCN1CCc2c(OCc3ccc(C(=O)OC)o3)cccc2C1=O	14
CCOC(=O)c1cc2ccc3ccccc3c2s1	21
CCOC(=O)C(CC)Sc1ccc2nnc(CCNS(=O)(=O)c3ccccc3)n2n1 (stereo not given)	18
CCOC(=O)C1(Cc2cccc(OC)c2)CCN(Cc2cccnc2)CC1	9
O=c1nc(Nc2ccc(OCc3ccccc3)cc2)sc2ncccc12	10
C/C(=N/NC(=O)CNS(=O)(=O)c1ccc(C)cc1)c1cccc([N+](=O)[O-])c1	4
CCNC(=O)COC(=O)/C=C/c1cccc(F)c1	6
Cc1cccc(NC(=S)NC23CN4CN(CN(C4)C2)C3)c1	-2
CCCCn1c(=O)nc2n(-c3ccc(C)cc3)c3ccccc3cc-2c1=O	9
O=C(CSc1ccc([N+](=O)[O-])cn1)Nc1ccc(N2CCOCC2)c(Cl)c1	8
COc1ccc(Cl)cc1N(CC(=O)NC(C(C)C)C(C)C)S(C)(=O)=O	3
CN(C)C(/C=C/Nc1ccc([N+](=O)[O-])cc1)=C(C#N)C#N	14
COc1cccc(NC(=O)CN(C)C(C)C(=O)Nc2ccc(S(=O)(=O)N3CCOCC3)cc2)c1 (stereo not given)	15
Cc1ccc(S(=O)(=O)N2CCN(c3cnn(-c4ccccc4)c(=O)c3Cl)CC2)cc1	4
O=C(NCCCN1CCCC1)c1cc2c(Cl)nc3ccccc3c2s1	16
CCC(C)N1C(=O)S/C(=C/c2ccc3c(c2)n(C)c(=O)n3C)C1=O (stereo not given)	5
CSCCC(C(=O)OCC(=O)c1ccc(C)c(C)c1)N1C(=O)c2ccccc2C1=O (stereo not given)	9
C/C(=N/NC(=O)CN1CCN(S(=O)(=O)c2ccc(Br)cc2)CC1)c1cccnc1	8
COc1ccc(N(C)S(=O)(=O)c2cccc(C(=O)Nc3ccc(OC)nc3)c2)cc1	7
COc1c(C)cc(NC(=O)c2ccc3c(c2)NC(=O)CO3)cc1C	4
Cc1ccc(-c2nn(CC(=O)N3CCOCC3)c(=O)c3ccccc23)cc1S(=O)(=O)N(C)C	15
Cc1ccc(NC(=O)c2ccc3snnc3c2)cc1	0
CC(=O)c1cc2c(cc1NS(=O)(=O)c1ccccc1C)OCO2	10
CCOc1ccc(NC(=O)CNC(=O)c2cccs2)cc1	15
CCn1nnnc1NCc1ccc(OCc2ccc(F)cc2Cl)c(OC)c1	22
COc1ccc(/C=C/C(=O)NCCSCc2ccco2)cc1OC	16
COc1cc(CC(=O)Nc2nc(C)cs2)cc(OC)c1OC	15
COc1cc(NC(=O)COC(=O)/C=C/c2ccc(O)c(OC)c2)cc(OC)c1	13
Cc1ccc(C(=O)NCC(=O)OCC(=O)NC(C)c2ccccc2)s1 (stereo not given)	7
O=C(CSCCN1C(=O)c2ccccc2C1=O)Nc1ccc2ccccc2c1	3
COc1ccc(N2CCN(C(=O)CCNS(=O)(=O)c3ccccc3)CC2)cc1	17
C#CCCOC(=O)N1C2=NC(C(=O)OC)=C(C(=O)OC)[C@@H]3N(C)c4ccccc4[C@]23C[C@H]1C(=O)OC	15
O=C(COC(=O)c1cccc(Br)c1)Nc1cccc2c1C(=O)c1ccccc1C2=O	7
Cc1ccc(C(=O)CSc2nnc3c4ccccc4nc(Cc4ccccc4)n23)cc1	10
Cc1cccc(OCC(=O)OC2CCN(C)CC2)c1	18
CCCCc1ccc(-c2ccc(Br)cc2)nc1	7
COC(=O)c1ccc(NC(=O)CSc2ccccc2)cc1	14
c1ccc(Nc2ccccn2)nc1	4
C#CCO[C@@H]1C[C@H](n2ccc(NC(=O)c3ccccc3)nc2=O)O[C@@H]1CO	19
CCNc1nc(NCc2ccccc2)nc(SCC(N)=O)n1	9
COC(=O)c1ccccc1N=Nc1c(N)n[nH]c1N	20
CC(=O)OCC(=O)[C@@]12OC3(CCCC3)O[C@@H]1C[C@H]1[C@@H]3CCC4=CC(=O)C=C[C@]4(C)[C@@]3(F)[C@@H](O)C[C@@]12C	14
CCOC(=O)CC(=O)NC(CC(=O)OC)c1ccc(C(C)C)cc1 (stereo not given)	-2
COc1ccc(-c2cn3cc(C)ccc3n2)cc1F	17
COc1ccc(/C=C(/C(=O)c2cccs2)N2C=CC=CC2=C(C#N)C#N)cc1	25
Cc1ccc(-c2nc(CN(Cc3c(C)nn(C)c3C)C(C)C)c(C)o2)o1	17
CCN1CCN(C(c2cccs2)C(C)NC(=S)Nc2cccc(C)c2C)CC1 (stereo not given)	11
COc1ccc(-c2csc(NC(=O)c3ccccc3NS(=O)(=O)c3ccc(F)c(F)c3)n2)cc1	-24
O=C(Nc1cccc(-c2cn3cccnc3n2)c1)c1cccs1	6
O=C(N/N=C(\Cc1ncc[nH]1)c1ccccc1)c1cccnc1	7
O=C(c1cccc(C(F)(F)F)c1)C1CCCN(Cc2ccc(OCCO)cc2)C1 (stereo not given)	11
Cc1ccc(Sc2ccc([N+](=O)[O-])cc2[N+](=O)[O-])nc1	18

Three structures from above, arranged by SMILES length, rising.
structure	Calb biofilm kill
O=C(N/N=C(\Cc1ncc[nH]1)c1ccccc1)c1cccnc1	7
CCN1CCN(C(c2cccs2)C(C)NC(=S)Nc2cccc(C)c2C)CC1 (stereo not given)	11
O=C(c1cccc(C(F)(F)F)c1)C1CCCN(Cc2ccc(OCCO)cc2)C1 (stereo not given)	11

More results:
structure	Calb biofilm kill
CN1CCN(CC#CCC(O)(c2ccccc2)C2CCCC2)CC1 (stereo not given)	15
Cc1ccc(S(=O)(=O)N2CCOCC2)cc1NC(=O)CSc1n[nH]c(N)n1	8
CC(NC(=O)c1cc(=O)[nH]c2ccccc12)c1ccccc1 (stereo not given)	16
O=C(O)c1ccc(CN2CCOCC2)o1	5

No new results follow: an excerpt of the list.
structure	Calb biofilm kill
Cc1ccc(S(=O)(=O)N2CCOCC2)cc1NC(=O)CSc1n[nH]c(N)n1	8
CC(NC(=O)c1cc(=O)[nH]c2ccccc12)c1ccccc1 (stereo not given)	16
O=C(O)c1ccc(CN2CCOCC2)o1	5

Source: PubChem (PCMD)

The list is partial; the hit share may differ from the screen's.
